Compound activity: PubChem, National Center for Advancing Translational Sciences (NCATS)
MARV entry inh = qHTS for inhibitors of binding or entry into cells for Marburg Virus; Marburg virus pseudotyped entry inhibition, cell reporter; control for the full effect not named in the record; about a third of the inactives were read at about 46 µM; hit rate 1.8% among 300,000; Potency, µM (highest dose often 37.8 µM), for the others: at the top dose activity change, negative = inhibition, most hits filed as inhibitors; active = well fitted inhibition curve with a large enough effect; inconclusive = small, poorly fitted or top-dose-only effect, or effect the other way; inactive = flat fitted curve, though single readings scatter; tested in HEK293 cells; about a fifth of its hits are not listed in these tables; also: luciferase read-out
An asterisk follows results filed as active; ? = inconclusive; & = joins results of further samples; [ ] = another dose, or the depositor's remark. % is scaled to controls: 0 for no effect and ±100 for the full control effect; potency is read from the fitted curve at half-maximal effect. This is a subset; rates above refer to the full screens.

The first six entries, to show the layout:
SMILES	MARV entry inh
Cc1ccc(S(=O)(=O)N[C@@H]2COC(=O)[C@@H](C)COC(=O)C/C=C/[C@H]2C)cc1	7%[14.2 µM]
CC1=CC[C@@H](COc2ccccc2)O[C@@]2(C1)C(=O)N(Cc1ccc(Br)cc1)c1ccccc12	25%[14.2 µM]
C[C@@H]1CC[C@H]2C(=O)N3[C@@H](CC[C@@H](C)[C@@H]3c3ccc(Br)cc3)C(=O)N2[C@@H]1c1ccc(Br)cc1	-25%&-25%[14.2 µM]
CCN(CCNC(=O)[C@H]1C=C(OC)C(=O)C[C@@H]2c3ccccc3C[C@]12C)C(C)=O	0%[14.2 µM]
C=CCN=C1NC(c2cccc(F)c2)C(C(=O)OC)=C(C)N1Cc1ccccc1 (stereo not drawn)	?
CC=COC(=O)N[C@@H](c1ccccc1)[C@]1(C(C)=O)CCOC1=O	7%[14.2 µM]

This part in full, from the start:
SMILES	MARV entry inh
Cc1ccc(S(=O)(=O)N[C@@H]2COC(=O)[C@@H](C)COC(=O)C/C=C/[C@H]2C)cc1	7%[14.2 µM]
CC1=CC[C@@H](COc2ccccc2)O[C@@]2(C1)C(=O)N(Cc1ccc(Br)cc1)c1ccccc12	25%[14.2 µM]
C[C@@H]1CC[C@H]2C(=O)N3[C@@H](CC[C@@H](C)[C@@H]3c3ccc(Br)cc3)C(=O)N2[C@@H]1c1ccc(Br)cc1	-25%&-25%[14.2 µM]
CCN(CCNC(=O)[C@H]1C=C(OC)C(=O)C[C@@H]2c3ccccc3C[C@]12C)C(C)=O	0%[14.2 µM]
C=CCN=C1NC(c2cccc(F)c2)C(C(=O)OC)=C(C)N1Cc1ccccc1 (stereo not drawn)	?
CC=COC(=O)N[C@@H](c1ccccc1)[C@]1(C(C)=O)CCOC1=O	7%[14.2 µM]
COC(=O)[C@H]1C(=O)C[C@@](C)(O)[C@@H](C(=O)OC)[C@@H]1c1ccccc1F	-11%[46.1 µM]
COC(=O)c1ccccc1NC(=O)CSc1nc2c(c(=O)n(C)c(=O)n2C)n1C	-6%
Cc1[nH]nc2c1[C@@H](CCc1ccccc1)C(C#N)=C(N)O2	3%
O=C(N(CC1CCCCC1)C1=NCCCC1)C12CC3CC(CC(C3)C1)C2	-19%
COC(=O)C1=C(C(=O)OC)[C@@H]2N(C)c3ccccc3[C@@]23C[C@@H](CO)N(C(=O)NC2CCCC2)C3=N1	?
CCNC(=O)[C@@H]1O[C@@H](n2cnc3c(N)ncnc32)[C@@H](O)[C@H]1O	7%
C[C@H]1Cc2c(-c3ccccc3)nc3c(c2CO1)CN(C(=O)c1cccnc1)CC3	?
CCCCCCC#C[C@@H]1C=C[C@H](OC(=O)OCC)[C@@H](COC(=O)OCC)O1	-12%&-12%[14.2 µM]
C[C@H]1C[C@@H](C)O[C@@]2(C1)C(=O)N(Cc1ccccc1C(F)(F)F)c1ccccc12	-15%[14.2 µM]
CC(=O)OC[C@H]1O[C@H](C#CC(C)(C)C)C=C[C@@H]1OC(C)=O	16%&16%[14.2 µM]
C#CCN1C(=O)[C@]2(O[C@H](COc3ccccc3)CC3=CCCC32)c2c(Br)cccc21 (stereo partly drawn)	8%[14.2 µM]
COc1cccc([C@H]2Oc3ccc(OC)cc3/C(=N\OCC[C@@H]3C=C[C@H](OC(C)=O)[C@@H](COC(C)=O)O3)[C@@H]2O)c1	-24%[14.2 µM]
C[C@@H]1CC[C@H]2C(=O)N(Cc3ccc(Cl)cc3)C[C@@H](O)CN2[C@@H]1c1cccc(Br)c1	?
COC(=O)C/C=C/[C@@H](C)[C@H](OC)c1ccccc1Br	-11%[14.2 µM]
CCOC(=O)CCN1C(=O)[C@H]2[C@H]3[C@H](O)[C@H](O)C/C(=N\OCC(C)C)[C@@H]3CC[C@H]2C1=O	-11%[14.2 µM]
Cc1ccc(C(=O)OC[C@H]2O[C@H](Cl)C[C@H]2OC(=O)c2ccc(C)cc2)cc1	1%[14.2 µM]
C=CC[C@@H]1C=C[C@H](OC(=O)OCC)[C@@H](COC(=O)OCC)O1	?
CC1CCC(C(=O)C2C(=O)C3=C(CCCC3)C2=O)CC1 (stereo not drawn)	-15%
CCN1C(=O)[C@@H]2[C@H]3[C@H](O)[C@H](O)CC(=NO[C@@H]4O[C@H](COC(C)=O)[C@@H](OC(C)=O)[C@H](OC(C)=O)[C@@H]4OC(C)=O)[C@@H]3CC[C@H]2C1=O	12%[14.2 µM]
O=C1C[C@H](c2ccccc2)[C@@H](c2ccc(Br)cc2)O1	-17%[14.2 µM]
CCCCCCC/C=C/C1=CC2(C)CC1(C)C(CCCCCCC)CC2=O (stereo not drawn)	17%[14.2 µM]
COC(=O)C1=C(C)N(Cc2ccccc2)C(=NCc2ccccc2)NC1c1ccccc1 (stereo not drawn)	?
CCCN(CCC)C(=O)Cn1ccc(=N)c2c1CCCC2	-3%
CCN(CC)CCNC(=O)C1=C(OC)CC(N)=C(Cl)C1	14%&14%
COc1ccc(COC(=O)N/N=C2\C[C@@H](O)[C@@H](O)[C@@H]3[C@@H]4C(=O)N(c5ccc(F)cc5F)C(=O)[C@@H]4CC[C@@H]23)cc1	?
COC1=C[C@@H](C(=O)N[C@H]2CCCC[C@H]2NC(C)=O)[C@]2(C)Cc3ccccc3[C@H]2CC1=O	?
FC(F)(F)C1CCC(c2nnc(C3CCCCN3)c(C3=NCCCC3)n2)NC1 (stereo not drawn)	16%
O=C(/C=C\c1ccc2c(c1)OCO2)c1ccc(F)cc1	-9%[14.2 µM]
COC(=O)C1=C(C)N(Cc2ccccc2)C(=NCc2ccc(OC)cc2)NC1c1ccccc1 (stereo not drawn)	?
COC(=O)C12C[C@@H](C)C3C(C)C(c4ccccc4C31)N2C(=O)C(F)(F)F (stereo partly drawn)	?
CCN1C(N(C)CCc2ccc(Br)cc2)=NC(c2ccccc2)C(C(=O)OC)=C1C (stereo not drawn)	?
Cc1ccc(OC[C@H](O)CNS(=O)(=O)c2ccccc2C(=O)O)cc1	2%[46.1 µM]
O=C(Nc1cccc(C(=O)N2CCOCC2)c1)C1CCCCC1	?
COc1cccc([C@H]2/C(=C(\O)c3ccc4c(c3)OCCO4)C(=O)C(=O)N2CCN(C)C)c1	-10%
CCC=CC[C@@]1(C(=O)OC)C=C[C@@H](C)[C@H](c2ccccc2Br)N1C(=O)C(F)(F)F	-1%[14.2 µM]
CCN1C(=O)C[C@H](N2CCN(c3ccc(OC)cc3)CC2)C1=O	10%
CC(=O)OC[C@H]1O[C@H](CCO/N=C/[C@@H](C)[C@H](OCc2ccccc2)C(C)C)C=C[C@@H]1OC(C)=O	?
CCOC(=O)CN1C(=O)N(CC)C(C)=C(C(=O)OC)C1c1ccccc1 (stereo not drawn)	?
O=C1[C@@H]2[C@H](ON(c3ccccc3)[C@H]2c2ccncc2)C(=O)N1c1ccc(Br)cc1	-21%
COc1cccc([C@H]2Oc3ccc(OC)cc3/C(=N\OC[C@@H](C)[C@H](OCc3ccccc3)C(C)C)[C@@H]2O)c1	10%[14.2 µM]
Cc1cc(N2C(=O)C(=O)/C(=C(/O)c3ccccc3)[C@H]2c2cccs2)no1	21%
C/C(CCC(=O)OC[C@@H]1O[C@H](C#Cc2ccccc2)C=C[C@@H]1Oc1ccc(C)cc1)=N/OC[C@@H](O)[C@H]1O[C@H]2OC(C)(C)O[C@H]2[C@@H]1O	-2%[14.2 µM]
COc1ccc([C@]23Cc4ccccc4[C@H](O2)C2=C(CC(C)(C)CC2=O)O3)cc1	6%[14.2 µM]
CC(C)[C@@H](OCc1ccccc1)[C@H](C)C=NOC[C@@H](O)COCc1ccco1	?
COc1cccc([C@H]2/C(=C(\O)c3cnn(-c4ccccc4)c3C)C(=O)C(=O)N2CCN(C)C)c1	0%
CC(=O)O[C@@H]1N=C(c2ccccc2)c2ccccc2NC1=O	15%
C#CCCCO/N=C1\C[C@@H](O)[C@@H](O)[C@@H]2[C@@H]3C(=O)N(C[C@@H]4CCCO4)C(=O)[C@@H]3CC[C@@H]12	3%[14.2 µM]
C=CCN1C(=O)[C@]2(OCCC=C[C@@H]2C)c2cc(OC)ccc21	37%[14.2 µM]
O=C1OC2(CCCCC2)CC2=C1[C@H]1O[C@](CCCCN3C(=O)c4ccccc4C3=O)(Cc3ccccc31)O2	?
COc1ccc(OC)c([C@H]2C(C(=O)c3sc(C)nc3C)=C(O)C(=O)N2CCN2CCOCC2)c1	-11%[46.1 µM]
Oc1ccc([C@@H]2CNCc3sccc32)cc1O	12%
C[C@@H]1C=CCCO[C@]12C(=O)N(Cc1ccc(Br)cc1)c1cccc(Br)c12	7%[14.2 µM]
COC(=O)N[C@@H](c1ccccc1)[C@]1(C(C)=O)CCCC1=O	-4%[14.2 µM]
CC(C)[C@@H](OCc1ccccc1)[C@H](C)/C=N/OC[C@@H](O)[C@H]1O[C@@H]2OC(C)(C)O[C@@H]2[C@H]1O	-5%[14.2 µM]

Molecules from the list above that contain a thiophene ring, fused or not (2):
SMILES	MARV entry inh
Cc1cc(N2C(=O)C(=O)/C(=C(/O)c3ccccc3)[C@H]2c2cccs2)no1	21%
Oc1ccc([C@@H]2CNCc3sccc32)cc1O	12%

More entries.
SMILES	MARV entry inh
CC(C)(C)c1cccc(/C=N\O)c1O	0%
C=C(CO[C@@H]1C=C[C@@H](c2ccccc2)O[C@@H]1COC)c1ccccc1	-4%[14.2 µM]
CCOC(=O)NN=Cc1ccccc1-c1cc(OC)ccc1OC	-4%[14.2 µM]
C#CCCCON=C1C[C@@H](O)[C@H](O)[C@H]2[C@@H]3C(=O)N(Cc4ccccc4)C(=O)[C@@H]3CC[C@H]12	11%[14.2 µM]
CC=COC(=O)N[C@@H](c1cccc(C)c1)[C@]1(C(=O)OCC)CCCC1=O	13%[14.2 µM]
C=CCOC(=O)C(C(C)=O)[C@@H](NC(=O)OC)c1ccc2ccccc2c1 (stereo partly drawn)	23%[14.2 µM]
CC(CCN1CCCc2nc(C)c(C)cc21)=NO[C@@H](C)c1cc(-c2c(C)cc(C)cc2C)no1	?
COc1ccc2c(c1)CO[C@H]([C@H](O)CBr)[C@H]2C=Cc1ccccc1	-15%[14.2 µM]
Cc1ccc(NC(=O)OC[C@@H]2CSCCS(=O)(=O)N2)cc1	?
CCN1C(=O)[C@@H]2[C@H]3[C@H](O)[C@H](O)CC(=NO[C@H](C)CN4CCCc5nc(C)c(C)cc54)[C@@H]3CC[C@H]2C1=O	2%[14.2 µM]
COCc1[nH]nc2c1[C@@H](c1ccc(OC)cc1)C(C#N)=C(N)O2	5%
CC12C=C(C=CCCc3ccco3)C(C)(C1)C(CCc1ccco1)CC2=O (stereo not drawn)	-6%[14.2 µM]
O=C(C1CCCCC1)N1C[C@@H](n2cc(C3CC3)nn2)[C@@H](O)C[C@@H]1c1ccccc1	?
COC[C@@H]1OC(=O)c2coc3c2[C@]1(C)C1=C(C3=O)[C@H]2CCC(=O)[C@]2(C)C[C@@H]1OC(C)=O	-11%
CCN(CC)C[C@@H](O)CN1CCCCc2nc(C)c(C)cc21	-8%[14.2 µM]
C=CCOC(=O)N[C@H](c1ccccc1)[C@H](C)C=CCC(=O)OC	9%[14.2 µM]
COC(=O)C1=C(C(=O)OC)[C@@H]2Nc3ccccc3[C@@]23C[C@@H](C(=O)OC)N(C(=O)N2CCNC2=O)C3=N1	8%[14.2 µM]
Cc1cc(C)c2c(c1)CO[C@H]([C@H](O)CO)[C@H]2C=Cc1ccccc1	?
CCSC1=C(C#N)[C@@H](c2cccs2)C(C(=O)OC)=C(C)N1	26%
CCCCCOC(=O)[C@H](C)c1c(C)[nH]c(=S)[nH]c1=O	4%
COC(=O)[C@](NC(C)=O)(Nc1nc2ccc(S(C)(=O)=O)cc2s1)C(F)(F)F	0%
COC(C(C)/C=C/CC(=O)OCCCc1ccccc1)C1CCCCC1 (stereo not drawn)	5%[14.2 µM]
N#C[C@@H](C(=O)NC1CCCCC1)c1nc2ccccc2nc1N1CCN(c2ccccc2F)CC1	-15%[46.1 µM]
CCOC(c1cc(OC)cc([N+](=O)[O-])c1OC)C(C)C(OC)[C@@H](C)/C=C/CC(=O)OC (stereo partly drawn)	1%[14.2 µM]
CCCNC(=O)OC[C@H]1O[C@H](CCON=C2c3cc(OC)ccc3O[C@H](c3cccc(OC)c3)[C@H]2O)C=C[C@H]1Oc1ccc(OC)cc1	?
CCC1=C(O)CC(O)=C(C2NNC(CCC(=O)O)C2C2NC3CCCCC3N2C)C1 (stereo not drawn)	5%[46.1 µM]
COC(=O)c1[nH]c(C)c(/C(O)=C2\C(=O)C(=O)N(CCN3CCOCC3)[C@H]2c2cccnc2)c1C	4%
CCN(CC)CCC[C@H](C)N=C(c1ccccc1)c1c(O)n(C)c(=O)n(C)c1=O	-2%
C=CC[C@@H]1C=CC(ON=C(C)CCC(=O)OC[C@H]2O[C@H](C#Cc3ccccc3)C=C[C@H]2Oc2ccc(C)cc2)[C@H](CO)O1 (stereo partly drawn)	29%[14.2 µM]
COC(=O)[C@@H]1O[C@@H](c2c(OC)c(OC)c(C)c(OC)c2OC)[C@H](C)[C@@H](O)[C@@H]1C	6%[14.2 µM]
CN(CCCCCC(=O)/C=N\O)Cc1ccccc1	0%
CN(C)CCCN(CCCNC(=O)/C=N\O)Cc1ccccc1	-13%
Cc1cccc(COc2ccc(/C(O)=C3\C(=O)C(=O)N(CCN(C)C)[C@H]3c3ccncc3)cc2)c1	8%
C=CCOC(=O)C(C(C)=O)[C@@H](NC(=O)OC)c1cccc(F)c1 (stereo partly drawn)	12%[14.2 µM]
CCO[C@H](c1cc(OC)cc([N+](=O)[O-])c1OC)[C@H](C)C=CCC(=O)OC	1%[14.2 µM]
C[C@@H]1CN(C2CCN(C(=O)c3ccccc3Cl)CC2)C[C@H](C)O1	-19%[46.1 µM]

Part of the list above, comma-delimited:
SMILES,MARV entry inh
C=CCOC(=O)C(C(C)=O)[C@@H](NC(=O)OC)c1cccc(F)c1 (stereo partly drawn),12%[14.2 µM]
Cc1cccc(COc2ccc(/C(O)=C3\C(=O)C(=O)N(CCN(C)C)[C@H]3c3ccncc3)cc2)c1,8%
CN(CCCCCC(=O)/C=N\O)Cc1ccccc1,0%
